Compound activity: PubChem, several laboratories
Env fusion inh – blocks HIV Env-driven cell-cell fusion | HeLa-JRFL Env/CEM21 cell fusion, luciferase | inhibition, % at 12.3 µM | 360,000 tested, 1.1% active | AID 651610;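 active means mean replicate inhibition score of at least 50 and every replicate individually at or above 50; inconclusive means only one of the two criteria met; inactive means mean below 50 and not all replicates reaching 50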;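 further: 0% = plate neutral controls and 100% = maraviroc near 300 nM; one replicate is shown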
UUG fidelity – modulators of start codon recognition fidelity in yeast. S. cerevisiae UUG-firefly luciferase reporter, luminescence/redox ratio. activity score, % at 18.7 µM. 350,000 tested, 0.13% active;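 active means replicate mean at a twofold rise or more, about +100% in these data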;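 further: firefly luciferase made from a UUG start codon reports start codon fidelity; reporter light over untreated wells divided by growth signal over untreated wells; some hits fall short of that in this replicate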
Rce1 inhib – blocks yeast Ras-converting enzyme. yeast membranes, quenched prenylated peptide cleavage fluorescence. calls only. 290,000 tested, 0.27% active. AID 2563;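 active means fall in fluorescence gain of 50% or more versus controls, with final raw signal at or below 3038400; inconclusive means same 50% fall but final raw signal above 3038400; inactive means fall in fluorescence gain under 50%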;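 further: plate controls were neutral control wells for no effect and wells lacking membranes for full effect; tested at 10 µM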
Target sequence (Q03530 whole entry, looked up): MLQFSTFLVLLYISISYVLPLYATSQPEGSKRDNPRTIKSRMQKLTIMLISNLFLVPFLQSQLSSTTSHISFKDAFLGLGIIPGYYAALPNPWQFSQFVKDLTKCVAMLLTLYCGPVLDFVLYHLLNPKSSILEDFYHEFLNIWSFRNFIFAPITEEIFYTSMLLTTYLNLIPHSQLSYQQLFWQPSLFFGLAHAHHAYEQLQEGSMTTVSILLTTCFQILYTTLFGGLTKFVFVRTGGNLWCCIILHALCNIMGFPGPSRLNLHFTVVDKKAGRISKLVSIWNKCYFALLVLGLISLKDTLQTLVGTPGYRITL
MT1-MMP act inh – blocks activation of human MT1-MMP. HT1080 RFP-PRO-GFP cells, GFP/RFP ratio fluorescence, overnight; percent of plate control window, DMSO zero. GFP/RFP ratio change, % at 20 µM. 360,000 tested, 0.061% active. AID 651647;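 active means GFP/RFP ratio change of at least 30% with cell ATP level not reduced by more than half and red fluorescence within 50% of control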; further: strong numbers were not always called active
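Assay system: HT1080 cells carrying an RFP-PRO-GFP reporter | Dosing: Single dose of 20 µM compound, 1% DMSO final | Incubation: Cells overnight before dosing, compound overnight, 37 °C, 5% CO2 | Evaluation: GFP/RFP fluorescence ratio | Control set: DMSO and RFP-L50D-GFP cell wells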
eIF4H inh – inhibitors of RNA binding by human eIF4H. Q15056. eIF4H fluorescence polarization binding assay. inhibition, % at 35 µM. 290,000 tested, 0.94% active. AID 2012;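 active means 50% or more with normal probe brightness, or confirmed in later tests; inconclusive means above 50% with abnormal brightness, or retests that disagree; inactive means below 50% or failed in later tests; about a fifth of its hits are not listed in these tables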;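 further: calls also rest on retests at 20 µM and on dose response follow-up; 0% = protein and probe with vehicle and 100% = probe without protein; strong numbers were not always called active; many hits fall short of the cut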
CSC inhib – cancer stem cell inhibition; cancer stem cell-like cells viability, luminescence; inhibition, % at 7.5 µM; 300,000 tested, 1.1% active; AID 2717;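 active means mean at 75% or more and at least half the replicates too; inconclusive means mean and replicates disagree; tested in HMLE shEcad cells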;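 further: 0% = median of negative and 100% = median of positive control wells; the first replicate is given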
PABP FP inh – blocks human PABP binding to poly(A) RNA; fluorescence polarization; AID 2014; 290,000 tested, 1% active; P11940; inhibition, % at 35 µM;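 active means 50% or more with normal probe brightness, or confirmed in later tests; inconclusive means above 50% with abnormal brightness, or retests that disagree; inactive means below 50% or failed in later tests; about a fifth of its hits are not listed in these tables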;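 further: calls also rest on retests at 20 µM and on dose response follow-up; controls were probe without protein and protein plus probe with vehicle; some compounds called inactive have numbers as strong as hits; many hits fall short of the cut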
Target sequence (P11940 whole entry, looked up): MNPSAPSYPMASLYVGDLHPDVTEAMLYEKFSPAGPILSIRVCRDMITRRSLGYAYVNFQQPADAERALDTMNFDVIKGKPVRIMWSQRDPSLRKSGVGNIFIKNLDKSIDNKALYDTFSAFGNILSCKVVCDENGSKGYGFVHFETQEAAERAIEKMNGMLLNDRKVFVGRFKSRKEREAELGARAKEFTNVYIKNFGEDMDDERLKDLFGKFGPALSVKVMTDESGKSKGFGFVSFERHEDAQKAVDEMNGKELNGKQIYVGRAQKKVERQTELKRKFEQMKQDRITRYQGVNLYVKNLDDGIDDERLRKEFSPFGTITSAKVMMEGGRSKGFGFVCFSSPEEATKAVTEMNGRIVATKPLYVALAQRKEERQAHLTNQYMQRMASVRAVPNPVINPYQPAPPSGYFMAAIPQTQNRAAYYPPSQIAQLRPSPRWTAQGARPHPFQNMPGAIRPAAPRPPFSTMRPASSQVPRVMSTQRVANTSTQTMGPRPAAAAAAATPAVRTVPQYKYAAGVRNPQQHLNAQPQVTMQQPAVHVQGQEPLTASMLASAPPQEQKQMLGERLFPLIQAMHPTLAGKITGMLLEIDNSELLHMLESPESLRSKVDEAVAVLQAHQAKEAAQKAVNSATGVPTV
eIF4H inh retest – further read-out of eIF4H inh, marked with its call; inhibition, %; compound at 20 µM; confirmation average;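 mean of two retest wells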
PABP FP inh retest – second read-out of PABP FP inh, no call of its own (marks repeat the call); inhibition, %; compound at 20 µM; confirmation repeats;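 mean of two retest wells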
MT1-MMP act inh RFP – further read-out of MT1-MMP act inh, marked with its call; RFP signal change, %; measured here: RFP expression control read;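 0 = vehicle wells; hits needed this value within 50% of zero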
Active calls of the source: *; i = inactive; ? = inconclusive; . = not tested or not shown.

SMILES | Env fusion inh | UUG fidelity | Rce1 inhib | MT1-MMP act inh | MT1-MMP act inh RFP | eIF4H inh | CSC inhib | PABP FP inh | others
CCOC(=O)c1sc(NC(=O)c2ccccc2OC)nc1C | -198 | -29 | i | -5 | 2 | -15 | 8 | 22
O=CN1CCN(C(C(=O)NC2CCCC2)c2ccc(Cl)cc2)CC1 (stereo not drawn) | -29 | -21 | i | -3 | -2 | -2 | -5 | 10
Cc1sc(NC(=O)CN(C)C2CCCCC2)nc1-c1ccc2c(c1)CCN2S(=O)(=O)c1ccccc1 | . | . | i | . | . | 11 | 7 | 9
CCOC(=O)C1=CNS(=O)(=O)NC1c1ccc(C)cc1 (stereo not drawn) | 1 | -5 | . | 3 | 3 | . | . | .
CC1CCCCN1C(=O)CSc1nc(-c2ccccc2)cn1N (stereo not drawn) | -9 | . | i | 1 | -4 | 2 | -11 | ?
Cc1cccc2c1N(CCOc1ccccc1Cl)C(=O)C2=O | . | . | i | 3 | 5 | 0 | 32 | -2
COc1cc(-c2nnn(Cc3ccccc3C)n2)cc(OC)c1OC | -6 | 6 | i | 1 | 2 | 6 | 11 | 2
COc1ccc(OCC(O)CON2C(=O)c3ccccc3C2=O)cc1 (stereo not drawn) | -42 | . | i | 4 | 8 | 5 | -1 | 9
CC1=NN(c2ccccc2)C(=O)/C1=C\c1cc(C)n(-c2ccccc2)c1C | 5 | . | i | 2 | 0 | 0 | -3 | -4
CS(=O)(=O)N(CC(O)Cn1c2ccccc2c2ccccc21)c1ccccc1 (stereo not drawn) | . | 4 | i | 7 | 4 | 9 | 4 | 9
Cc1occc1C(=O)N/N=C/C=C/c1ccccc1[N+](=O)[O-] | -4 | . | . | 5 | 5 | 5 | -1 | -16
Cc1ccc(NC(=O)CCCn2nc(C)c3c(C)n(-c4ccccc4)nc3c2=O)cc1C | -1 | 10 | i | 0 | 4 | -4 | -5 | -16

Quoted at random: three compounds from above.
SMILES | Env fusion inh | UUG fidelity | Rce1 inhib | MT1-MMP act inh | MT1-MMP act inh RFP | eIF4H inh | CSC inhib | PABP FP inh | others
COc1ccc(OCC(O)CON2C(=O)c3ccccc3C2=O)cc1 (stereo not drawn) | -42 | . | i | 4 | 8 | 5 | -1 | 9
Cc1ccc(NC(=O)CCCn2nc(C)c3c(C)n(-c4ccccc4)nc3c2=O)cc1C | -1 | 10 | i | 0 | 4 | -4 | -5 | -16
CC1=NN(c2ccccc2)C(=O)/C1=C\c1cc(C)n(-c2ccccc2)c1C | 5 | . | i | 2 | 0 | 0 | -3 | -4

Next compounds.
SMILES | Env fusion inh | UUG fidelity | Rce1 inhib | MT1-MMP act inh | MT1-MMP act inh RFP | eIF4H inh | CSC inhib | PABP FP inh | others
Nc1ccc(Oc2ncccn2)cc1 | 8 | 4 | i | 5 | 3 | 18 | 2 | 26
Cc1ccc(S(=O)(=O)N2CCOCC2)cc1N/N=C(\C#N)c1nc2ccccc2[nH]1 | 13 | . | i | 2 | -2 | -4 | 14 | 0
CCOC(=O)C1(Cc2ccccc2C(F)(F)F)CCN(C(=O)c2cc(C)n(C)n2)CC1 | 0 | . | i | 0 | -4 | 5 | -7 | -5
COc1ccccc1CNC(=S)NC1CCCCC1 | -6 | -32 | i | 1 | -5 | 2 | -8 | 6
COc1ccc(Cl)cc1NC(=O)C[n+]1ccccc1 | -8 | 13 | i | 2 | 4 | -2 | -7 | -4
COc1ccc2cc(/C(C)=N/NC(=O)c3cc(-c4cccnc4)nc4ccccc34)ccc2c1 | -2 | . | i | 2 | 5 | 11 | -12 | 11
CCC(Sc1nc2n[nH]c(C)c2c(=N)n1-c1cccc(Cl)c1C)C(=O)N(CC)CC (stereo not drawn) | -306 | -14 | i | 2 | -12 | -7 | 9 | 8
Cc1cn(CC(=O)NCc2ccccn2)c(=O)[nH]c1=O | -6 | -19 | . | 1 | 6 | . | . | .
CC1=CC(C)(C)N2C(=O)C3(C(C#N)=C(N)OC4=C3C(=O)CCC4)c3c(C)c(C)cc1c32 (stereo not drawn) | -19 | -14 | i | 1 | -2 | 1 | -6 | -6
COc1ccc(S(=O)(=O)N2CCOCC2)cc1NC(=O)COC(=O)c1[nH]c(C)c(C(C)=O)c1C | . | -19 | . | 1 | 0 | . | -18 | .
COc1ccc(C(=O)N/N=C(\C)c2cccc(NC(=O)c3ccc(F)cc3)c2)c(OC)c1 | . | -21 | i | 7 | -2 | -9 | 16 | 14
CC(C)CCn1c(COc2ccccc2)n[nH]c1=S | 8 | -19 | i | 1 | 5 | -1 | . | -10
O=C1c2ccccc2C(=O)N1CSc1nnc2c3ccccc3n(CCc3ccccc3)c2n1 | . | -14 | i | -2 | -6 | -9 | -8 | -7
S=c1nc[nH]c2c1ncn2C1CCCC1 | -19 | -8 | i | 2 | 1 | -4 | -16 | -3
CCC(CC)C(=O)OCC(=O)NC12CC3CC(CC(C3)C1)C2 | . | 21 | i | 4 | 7 | -3 | -8 | -11
CCCCNC(=O)CC1N=C2c3ccccc3N=C(SCC(=O)Nc3cccc(OC)c3)N2C1=O (stereo not drawn) | -91 | 0 | i | 1 | 0 | 5 | -16 | -5
COc1ccc(C(C)=O)cc1CSc1nnc(Nc2ccccc2)s1 | 56 | -12 | i | -2 | -24 | -7 | 2 | 4
O=C(Cc1cccc(C(F)(F)F)c1)NCc1ccc(Cl)cc1Cl | -66 | -3 | i | -2 | 1 | 0 | -9 | 0
CC(C)(CS(=O)(=O)[O-])NC(=O)CC[N+](C)(C)CCO | . | . | i | -3 | 2 | 88* | 2 | 51* | eIF4H inh retest=95*;PABP FP inh retest=90*
N#CCCN(CCC#N)C(=O)c1ccc2c(c1)OCO2 | 38 | -11 | i | 7 | 1 | -10 | -9 | -1
COc1cc(OC)cc(-c2n[nH]c(=S)n2-c2cc(OC)ccc2OC)c1 | -52 | -27 | i | 5 | 7 | -1 | 5 | 1
O=C(O)Cc1c[nH]c2ccc(O)cc12 | -25 | -15 | i | 0 | 0 | . | -7 | .
O=C1CCN(CCc2ccccc2)CCN1CCOc1ccccc1 | -10 | -14 | i | 7 | 6 | 0 | 8 | 7
Cc1onc(-c2ccccc2)c1C(=O)NNC(=O)c1ccccc1O | -2 | -9 | i | 9 | -1 | . | 2 | .
CC(C(=O)Nc1ccc(C(=O)O)c(O)c1)N1C(=O)/C(=C\c2ccco2)SC1=S (stereo not drawn) | . | -9 | i | 14 | 29 | 100* | -9 | 87*
COc1ccc(/C=N/NC(=O)c2cccnc2)cc1COc1ccc([N+](=O)[O-])cc1 | -47 | -11 | i | -4 | -17 | -6 | 41 | -7
S=C(CN1CCCC1=S)NCCc1ccccc1 | 9 | . | . | 1 | 2 | -5 | -3 | -1
NS(=O)(=O)c1cnccc1Nc1ccc(Cl)cc1 | 7 | 4 | i | 1 | 1 | -6 | 46 | 115 | eIF4H inh retest=6;PABP FP inh retest=7
O=C(Nc1cccc2ccccc12)c1cnsn1 | -22 | -6 | i | 1 | 1 | -13 | 23 | 3
NC(=O)N=Nc1c(O)[nH]c2ccc([N+](=O)[O-])cc12 | -19 | -18 | i | 3 | 4 | -12 | . | -5
CCC(C)C(=O)Nc1nnc(CCc2ccccc2)s1 (stereo not drawn) | -46 | 2 | i | -1 | 0 | 6 | 9 | 4
Cn1c(CNC(=O)c2ccccc2F)nnc1SCC(=O)N1CCN(c2ccccc2)CC1 | 7 | . | i | -4 | 2 | 4 | -11 | 0
CC(=O)NC(c1ccccc1)c1cc(Cl)c2cccnc2c1O (stereo not drawn) | 16 | -12 | i | 0 | -4 | 22 | 104* | 4
O=c1[nH]c(=S)[nH]cc1S(=O)(=O)c1cccc(Cl)c1 | -14 | -18 | i | -3 | 6 | 10 | -2 | 16
COc1cccc(-c2nnc(N(C)C(=O)c3ccno3)s2)c1 | -26 | . | i | . | . | -1 | . | 7
COc1ccc(C(=O)Nc2ccccc2C(=O)NC(Cc2ccc(O)cc2)C(=O)NNC(=O)c2ccncc2)cc1 (stereo not drawn) | 10 | -13 | i | -1 | -2 | 4 | -6 | -2
CC(/C=C/c1ccccc1)=N\NC(=O)C1CC1(C)c1ccccc1 (stereo not drawn) | 3 | -14 | i | 1 | -1 | -6 | 16 | -3
CN(C)C(=O)CCc1ccc2c3c([nH]c2c1)[C@]1(C)[C@@H](C(=O)N2CCOCC2)C[C@H](CC(=O)NCC24CC5CC(CC(C5)C2)C4)C(=O)N1CC3 | -13 | 10 | . | -5 | -3 | . | . | .
CC(C)NC(=O)C1(C)Cc2c(-c3cccc(C(N)=O)c3)ccnc2O1 (stereo not drawn) | 7 | -17 | . | 2 | 7 | . | . | .
C=CCn1c(-c2csc(-c3ccc(Cl)cc3)n2)n[nH]c1=S | . | . | i | 15 | 1 | 1 | 1 | 6
CC1CN(Cc2c(O)ccc3c(=O)c(-c4ccccc4Cl)coc23)CC(C)O1 (stereo not drawn) | -9 | -7 | i | 4 | 1 | 6 | -8 | 0
O=C(Nc1c2c(nn1-c1ccccc1)CS(=O)(=O)C2)c1cc2ccccc2o1 | 6 | -2 | i | 2 | 0 | -5 | 6 | 3
Cc1cc(C)cc(NC(=O)c2ccc(CSc3nnc(C)s3)cc2)c1 | . | -14 | i | -2 | -2 | -2 | -2 | 1
O=C(NCc1ccco1)C1CCCN(S(=O)(=O)Cc2ccccc2)C1 (stereo not drawn) | . | -14 | i | 0 | 0 | 1 | -10 | 3
COc1ccccc1[C@@H]1C(c2cccc(Cl)c2)=NN(c2ccccc2)[C@H]1C(=O)N1CCOC1=O | . | -10 | i | -2 | 0 | -3 | 19 | 6
Cc1onc(-c2ccccc2Cl)c1C(=O)NCCn1c(C)cc2ccccc21 | . | -8 | i | 40* | 44* | 10 | 7 | 30
O=C(CNc1ccc(Br)cc1)c1ccc(Br)s1 | -19 | . | i | 0 | -2 | 3 | . | -2
O=C1CC(c2ccc(F)cc2)CC2=C1C=Nc1ccccc1N2 (stereo not drawn) | 8 | . | i | -2 | -13 | -7 | 103* | -8
COCCN(C(=O)COC(=O)CCc1ccccc1)c1c(N)n(Cc2ccccc2)c(=O)[nH]c1=O | -5 | -13 | . | -1 | 2 | . | . | .
O=C1C=C(c2ccc3c(c2)oc2ccccc23)C[C@@H](c2ccc(Cl)cc2)C1 | 21 | -14 | . | 4 | -3 | . | -9 | .
CCc1nc2ccccc2n1CC(=O)N(C(C)CC)C1CCS(=O)(=O)C1 (stereo not drawn) | . | -8 | . | -2 | -4 | 11 | -20 | -19
CSc1cccc(NC(=O)COc2ccccc2)c1 | -79 | -3 | . | 2 | 1 | -1 | -6 | -7
Cc1cc(C)n2c(SCC(=O)NCc3ccc4c(c3)OCO4)nnc2n1 | 8 | -13 | i | 0 | 8 | 2 | -17 | -8
CCn1c(SCc2nc3scc(-c4ccccc4)c3c(=O)[nH]2)nnc1-c1ccc(Cl)cc1 | . | . | i | 0 | 4 | -4 | -7 | -12
COc1cccc(/C=N/NC(=O)c2c(C)nc3ccc(Br)cn23)c1O | . | -12 | i | -10 | -8 | 11 | 89* | 2
COc1ccc(-c2csc(NC(=O)C3=COCCO3)n2)c(OC)c1 | -49 | . | i | 4 | 2 | . | -5 | .
O=C(NCCCN1CCOCC1)c1onc(CSc2ccccn2)c1C(=O)NCCCN1CCOCC1 | 8 | 17 | i | 10 | 3 | . | -22 | .
Cc1noc(C)c1S(=O)(=O)Nc1cccc(C(F)(F)F)c1 | -4 | 5 | i | 2 | 0 | 0 | -8 | 4
